# Marburg entry inh: qHTS for inhibitors of binding or entry into cells for Marburg Virus | Marburg virus pseudotyped entry inhibition, cell reporter; control for the full effect not named in the record; about a third of the inactives were read at about 46 µM | Potency, µM (highest dose often 37.8 µM), inactives show at the top dose activity change, negative = inhibition, most hits filed as inhibitors | actives 1.8% (n = 300,000) | AID 540276, 2011; active = well fitted inhibition curve with a large enough effect; inconclusive = small, poorly fitted or top-dose-only effect, or effect the other way; inactive = flat fitted curve, though single readings scatter; tested in HEK293 cells; about a fifth of its hits are not listed in these tables; note: % is set by controls: 0 for no effect and ±100 for the full control effect; luciferase read-out
# StopGo reporter: High Throughput Screening for Foot and Mouth Disease Virus Antivirals. human cells with a luciferase reporter of 2A StopGo recoding; control for the full effect not named in the record. Potency, µM (titrated, usually from 57.9 µM), for the others: top-dose signal change, negative = less light. actives 1.2% (n = 410,000). AID 1159524, 2015; active = well fitted falling curve with a large enough effect; inconclusive = small, poorly fitted or top-dose-only effect; inactive = no such curve, though single readings can be large or run the other way; tested in HEK293T cells; note: % is set by controls: 0 for no effect and ±100 for the full control effect; nearly all actives have a fitted effect of over 45% in size; luciferase light after 4 h
# NS1 inh: qHTS Assay for Inhibitors of Influenza NS1 Protein Function; actives 0.4% (n = 270,000); Potency, µM (highest dose often 46.1 µM), for the others: top-dose activity, positive = more growth; S. cerevisiae slowed by influenza A NS1, growth recovery by OD600; active means well fitted rising curve with a large enough effect; inconclusive means small, poorly fitted or top-dose-only effect; inactive means no such curve, though single readings can be large or run the other way; note: nearly all actives have a fitted effect of over 50% in size
#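 Recovery from NS1-induced slow growth read by OD600 in budding yeast switched to galactose assay medium (pH 6.0, -URA) at 1:100 dilution. Compound 23 nl per well; the matching strain lacking NS1 serves as control.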
# SARS PLpro yeast: qHTS of Yeast-based Assay for SARS-CoV PLP. actives 0.19% (n = 330,000). AID 485353, 2010. Potency, µM (series often up to 32.9 µM), for inactives: at the top dose activity, positive = growth rescue. S. cerevisiae expressing SARS-CoV PLpro, growth rescue; control for the full effect not named in the record; active means well fitted rising curve with a large enough effect; inconclusive means small, poorly fitted or top-dose-only effect; inactive means no such curve, though single readings can be large or run the other way; note: 0% is about no effect; nearly all actives have a fitted effect of over 55% in size; growth read by luminescence after 48 h
# RE007 growth inh: qHTS Assay for Inhibitors of the HIV-1 protein Vpr | S. pombe RE007 Vpr strain, BacTiter-Glo ATP luminescence, 24 h; control for the full effect not named in the record | Potency, µM (series often up to 92.2 µM), inactives show at the highest dose activity change, negative = less growth | actives 0.21% (n = 360,000) | AID 651644, 2012; active = well fitted falling curve with a large enough effect; inconclusive = small, poorly fitted or top-dose-only effect; inactive = no such curve, though single readings can be large or run the other way;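 note: % is set by controls: 0 for no effect and ±100 for the full control effect; nearly all actives have a fitted effect of over 50% in size; the assay follows cell death caused by Vpr and the record does not say whether a fall means rescue or toxicity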
#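 Fission yeast strain RE007, carrying one chromosomally integrated HIV-1 vpr copy, was seeded at OD 0.01 in PMG+AL medium with 23 nL pinned compound. After 24 h at 30 °C and 99% humidity, viability was read by BacTiter-Glo luminescence.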
# Lassa entry inh: qHTS for Inhibitors of binding or entry into cells for Lassa Virus. Lassa virus pseudotype entry inhibition, cell reporter; control for the full effect not named in the record. Potency, µM (titrated, usually from 37.9 µM), inactives show top-dose activity change, negative = inhibition, most hits filed as inhibitors. actives 1.2% (n = 300,000). AID 540256, 2011; active means well fitted inhibition curve with a large enough effect; inconclusive means small, poorly fitted or top-dose-only effect, or effect the other way; inactive means flat fitted curve, though single readings scatter; tested in HEK293 cells; note: % is set by controls: 0 for no effect and ±100 for the full control effect; nearly all actives have a fitted effect of over 50% in size; luciferase read-out
# Cruzain inh noDet: qHTS Assay for Promiscuous and Specific Inhibitors of Cruzain (without detergent); Cruzipain (Trypanosoma cruzi), P25779; purified cruzain, Z-FR-AMC fluorescence, no detergent; Potency, µM, for inactives: max response, negative = inhibition, most hits filed as inhibitors; actives 2.3% (n = 200,000);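 note: plate controls were enzyme without inhibitor for no effect and buffer without enzyme for full effect; nearly all actives have a fitted effect of over 40% in size; top concentration of the series not given in the record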
# Target sequence (P25779 123-467 limits assumed): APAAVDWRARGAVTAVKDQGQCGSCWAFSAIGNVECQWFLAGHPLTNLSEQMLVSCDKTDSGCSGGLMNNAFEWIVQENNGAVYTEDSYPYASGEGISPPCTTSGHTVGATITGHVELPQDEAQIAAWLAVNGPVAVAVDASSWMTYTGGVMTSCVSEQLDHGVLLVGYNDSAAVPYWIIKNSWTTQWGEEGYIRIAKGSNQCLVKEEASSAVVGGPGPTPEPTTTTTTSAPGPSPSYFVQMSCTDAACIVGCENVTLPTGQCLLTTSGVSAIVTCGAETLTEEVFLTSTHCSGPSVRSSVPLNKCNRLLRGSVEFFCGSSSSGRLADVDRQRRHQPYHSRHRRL
#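 Detergent-free condition (0.00005% Triton X-100) in acetate buffer pH 5.5 with DTT. 1.5 nM enzyme and compound were pre-mixed 15 min, then 2 uM Z-FR-AMC substrate added; reaction progress from fluorescence change between first and third reads (60 s).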
# Cruzain inh Det: qHTS Assay for Promiscuous and Specific Inhibitors of Cruzain (with detergent); Cruzipain (Trypanosoma cruzi), P25779; purified cruzain, Z-FR-AMC fluorescence, 0.01% Triton; Potency, µM, for the others: max response, negative = inhibition, most hits filed as inhibitors; actives 0.43% (n = 200,000);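 note: plate controls were neutral wells for no effect and buffer without enzyme for full effect; nearly all actives have a fitted effect of over 40% in size; top concentration of the series not given in the record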
#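 Z-FR-AMC hydrolysis (2 uM substrate) by cruzain (1.5 nM) monitored kinetically at ex 360/em 450 nm after 15 min room-temperature compound exposure; 0.01% Triton X-100, pH 5.5, 5 mM DTT.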
# * marks the source's active call; other numbers are inactive results; ? = inconclusive; · = not tested or not shown; & = joins results of further samples; [ ] = dose if it differs, or a comment. Unless noted, calls come from the whole dose curve; as a rule, active = well fitted curve in the direction sought with a large enough effect; inconclusive = small, poorly fitted or top-dose-only effect, or another doubt; inactive = no such curve, though single readings can be large; an effect the other way counts as inactive or inconclusive. Potency is the fitted concentration of half-maximal effect. No enrichment for hits; about 4.7% have a hit in one of these screens.
SMILES,Marburg entry inh,StopGo reporter,NS1 inh,SARS PLpro yeast,RE007 growth inh,Lassa entry inh,Cruzain inh noDet,Cruzain inh Det
c1ccc2c(c1)nc(-c1ccncc1)n1nnnc21,-3%,·,-6%,-3%,-8%,20%,-2%,-3.6%
COC(=O)CSC1=C(C#N)C(=O)NC2(CCCCC2)S1,3%&3%[46.1 µM],9%,0%,-6%,2%,10%,5%,-7.1%
COc1cc(-c2nc3ccccn3c2NCC2CCCO2)ccc1O (stereo unspecified),5%,-15%,-11%,2%,-18%,-18%,15%,-6.3%
CN(N)c1nc2ccccc2nc1C(F)(F)F,-4%[46.1 µM],-8%,·,-1%,32%,5%,·,·
O=C(CSc1cn(CC(=O)N2CCCCC2)c2ccccc12)Nc1ccccc1,·,-2%,·,·,·,16%[46.1 µM],-7%,-0.5%
CCOc1ccccc1-n1nnc(-c2nc(-c3ccccc3)no2)c1N,·,34%[activator],·,·,·,-9%[46.1 µM],-1%,0.9%
Cc1noc(C)c1COC(=O)CCCc1nc2ccccc2s1,-2%,-2%,-10%,-4%,-14%,7%,8%,0.3%
CC(C)CN(C(=O)COC(=O)CSc1ccccc1)c1c(N)n(Cc2ccccc2)c(=O)[nH]c1=O,20%,-8%,·,-13%,-13%,13%,·,·
CCn1c(SCC#N)nc2c(c1=O)C1(CCCC1)Cc1ccccc1-2,?,?,-49%,0%,4%,-12%,-14%,-3.3%
C#CCNC(=O)C1=C[C@H](c2ccc(C(F)(F)F)cc2)[C@@H](CCCO)[C@H](OCC)O1,·,-14%,-1%,1%,1%,·,·,·
COc1ccc(N2CCN(C(=O)c3ccc4c(c3)CCN4S(C)(=O)=O)CC2)cc1,?,-1%&10%,·,·,0%,7%[46.1 µM],?,-0.4%
CC1=C(C(=O)Nc2ccccc2)C(c2ccccn2)n2ncnc2N1 (stereo unspecified),9%,3%,6%,·,-12%,0%,-4%,2.0%
O=C(CSc1nc2ccccc2c(=O)[nH]1)c1ccc(O)c(O)c1,-16%,-18%,2%,-1%,0%,-2%,-5%,-0.7%
CCOC(=O)c1ccc(NC(=O)C2C3C=CC(C3)C2C(=O)O)cc1 (stereo unspecified),?,4%,-19%,7%,-17%,18%,7%,1.3%
CN(c1c(C#N)c(C(F)(F)F)nn1C)N(S(C)(=O)=O)S(C)(=O)=O,-2%[46.1 µM],-3%,·,0%,1%,-21%[46.1 µM],·,·
Cc1cc(NC(=O)c2cccc(Cl)c2)ccc1-c1cc2ccccc2oc1=O,·,14%,·,·,·,2%[46.1 µM],3%,-3.6%
Cc1ccc(NC(=O)C2CCN(c3nnc(C)c4c(C)n(-c5ccccc5)nc34)CC2)c(Cl)c1,·,-21%,·,·,·,5%[46.1 µM],-6%,4.2%
CNC(=O)COC(=O)c1ccc([N+](=O)[O-])cc1Cl,0%[46.1 µM],-1%,-5%,16%,-3%,11%,-7%,-0.3%
CC(C)CNS(=O)(=O)c1ccc(C(=O)Nc2ccc3c(c2)OCCO3)cc1,6%,·,3%,1%,-4%,13%,-3%,1.5%
O=C(CNC(=O)OCc1ccccc1)NCC(=O)Nc1ccc(Br)cc1C(=O)c1ccccc1,?,-22%,-26%,-9%,3%,22%,?,-1.6%
CC(=O)NC1C(=O)N(CCc2ccccc2)c2ccccc21 (stereo unspecified),?,-10%,-1%,-10%,-3%,0%,16%,0.8%
O=C(CS(=O)(=O)Cc1ccccc1)N1CCc2ccccc2C1,7%,56%[activator],-11%,-5%,-16%,6%,-12%,0.2%
CCOC(=O)c1c(-c2ccccc2)oc2ccc(O)cc12,·,-5%,-68%,-10%,1%,·,·,·
Cc1ccc(C)c(N2CCN(C(=O)COc3cc(=O)n(C)c4ccccc34)CC2)c1,-24%&-24%,?,-40%,14%,27%,18µM*,?,0.4%
COc1ccc(OC)c(/C=N/NC(=O)C(O)c2ccccc2)c1 (stereo unspecified),-19%,-4%,-6%,-8%,-5%,7%,·,·
Cc1ccc2nc(-c3cccnc3)cc(C(=O)N3CCN(c4ccc([N+](=O)[O-])cc4)CC3)c2c1,-12%[46.1 µM],-9%,5%,-1%,?,·,·,·
CC(=O)N[C@@H](CS)C(=O)O,?,-12%,-4%&-2%,1%,15%,?,19%&6%,-1.7%&11%
CCc1cc2c(=O)c(-c3nc4ccccc4n3C)c(C)oc2c(CN2CCCCC2)c1O,·,-17%,-1%,-1%,4%,·,·,·
Cc1cccc(N(C)S(=O)(=O)c2nnc(NC(=O)c3cccs3)s2)c1,·,34%[activator],·,·,·,11%[46.1 µM],0%,-1.3%
O=C(N/C(=C/c1ccccc1Cl)C(=O)N1CCCC1)c1ccccc1,4%[14.2 µM],6%,·,3%,14%,0%,·,·
O=C1NCCN1C(=O)C12CC3CC(CC(C3)C1)C2,1%,-2%,-30%,-2%,-4%,-1%,-5%,3.8%
O=C(c1ccc2snnc2c1)N1CCN(c2ccccc2)CC1,?,-3%,-8%,1%,14%,12%,-4%,-3.4%
COC(=O)Nc1ncc(CN2CCCCC2)s1,7%,13%,0%,9%,2%,4%,1%,6.4%
CN(C)S(=O)(=O)c1ccc(N2CCCC2)c(C(=O)NCC2COc3ccccc3O2)c1 (stereo unspecified),-20%,-1%,·,-2%,-6%,-6%[46.1 µM],·,·
Cc1occc1C(=O)Nc1cccc(C(F)(F)F)c1,-13%,2%,-7%,-71%,?,0%,-12%,-6.5%
Cc1cc2nc(SCCN3CCCC3)[nH]c2cc1C,-1%,·,5%,-2%,-12%,0%,-5%,3.3%
O=c1cc(-c2ccccc2)nc2nc(SCc3ccccc3)[nH]n12,6%,35%[activator],-1%,2%,16%,17%,-7%,-2.9%
CCOC(=O)C(O)C1CCc2c([nH]c3ccc(C)cc23)C1=O (stereo unspecified),?,25%,0%,3%,3%,11µM*,·,·
CCn1c(CC(=O)Nc2ccccc2C)nnc1SCC(=O)Nc1nncs1,11%[46.1 µM],-6%,1%,-3%,-13%,5%,·,·
Cc1cccc(N2CC(C(=O)Nc3ccc(N4CCOCC4)cc3)CC2=O)c1C (stereo unspecified),4%,-9%,·,-5%,-8%,-6%,·,·
CCOC(=O)C1=C(C)NC(SC)=NC1c1ccc(OC)cc1 (stereo unspecified),-4%[46.1 µM],-13%,-4%,-4%,-16%,-24%,8%,-0.4%
CCCC1CC(C)(C(=O)CSc2n[nH]c(-c3ccccc3)n2)OC1=O (stereo unspecified),3%,·,0%,4%,6%,?,5%,0.7%
O=C1NC(c2cccc([N+](=O)[O-])c2)=CCN1c1ccccc1O,?,-3%&0%,0%&-3%,7%,-10%,2%,-7%&2%,-11%&-1.6%
COc1ccc(C(=O)Oc2cc(-c3ccc(OC)c(OC)c3)cc(=O)c3c(C)oc(C)c23)cc1,0%[46.1 µM],-12%,·,·,·,-25%[46.1 µM],-4%,-1.8%
CC(=O)Nc1ccc(Oc2nc(-c3cccnc3)nc3sc4c(c23)CCCC4)cc1,-1%[46.1 µM],-3%,·,·,-8%,-13%,·,·
Cc1cccc(NS(=O)(=O)c2ccc(Cl)c(C(=O)Nc3ccccc3C)c2)c1,·,-16%,·,·,·,-17%[46.1 µM],1%,-6.1%
CCc1nonc1NC(=O)c1oc2cc(C)c(Cl)cc2c1C,1%[46.1 µM],13%&22%,7%,7%,4%,11%[46.1 µM],11%,-0.3%
CCc1nn2c(=O)cc(COc3cccc(NC(=O)c4ccco4)c3)nc2s1,·,-20%,13%,-1%,-7%,·,·,·
Cc1nn(C)c2c(=O)c(=O)c2n(C)[nH]1,-17%[46.1 µM],0%,7%,2%,1%,-13%[46.1 µM],·,·
CCOC(=O)c1c(C)[nH]c(C)c1C(=O)COC(=O)/C=C/c1cccc(C(F)(F)F)c1,-8%,-12%,4%,-35%,14%,-9%,?,-9.9%
O=C1CC(N2CCOCC2)C(=O)N1c1ccccc1Cl (stereo unspecified),0%,-9%,-31%,-29%,-25%,9%,9%,-5.2%
COc1cccc(/C=N/NC(=O)CN(C)S(=O)(=O)c2ccccc2)c1OC,11%,18%,·,6%,-1%,10%,·,·
CCCC(=O)NCC(c1cccs1)S(=O)(=O)c1ccc(C)cc1 (stereo unspecified),·,4%,-18%,-9%,8%,·,·,·
O=C(COC(=O)c1ccc(Br)cc1)NCc1ccc(F)cc1,1%[46.1 µM],-15%,·,-6%,-7%,4%[46.1 µM],·,·
Cn1ccc2cc(NC(=O)Nc3cccnc3)ccc21,·,27%&25%,·,·,14%[18.4 µM],·,?,-4.4%
C=CCn1cc(C(C)=O)c(=O)[nH]c1=O,-12%[46.1 µM],11%,·,1%,2%,4%[46.1 µM],·,·
O=C(CCCn1c(=S)[nH]c2ccsc2c1=O)Nc1ccc2c(c1)OCCO2,12%[46.1 µM],-18%,·,1%,6%,·,·,·
COc1ccc(-n2c(=S)[nH]c3[nH]ncc3c2=O)cc1,-1%[46.1 µM],0%,6%,2%,5%,-4%,·,·
Cc1cc(Cl)ccc1N(CC(=O)NCc1ccccc1)S(C)(=O)=O,·,-3%,1%,8%,15%,·,·,·
CCc1ccc(CN(C)C(=O)c2cc(S(=O)(=O)N3CCOCC3)ccc2N2CCCC2)cc1,-46%,-29%,·,0%,6%,?,·,·

# Later entries:
SMILES,Marburg entry inh,StopGo reporter,NS1 inh,SARS PLpro yeast,RE007 growth inh,Lassa entry inh,Cruzain inh noDet,Cruzain inh Det
CN1CCN(C(=S)NC(=O)c2ccc(-c3ccccc3)cc2)CC1,·,17%,-3%,0%,1%,·,·,·
COc1cc(/C=N/NC(=O)CCn2cnc(-c3ccccc3)c2-c2ccccc2)ccc1O,?,-14%,6%,4%,-24%,?,8%,-11%
COC(=O)c1cc(C(=O)OC)cc(-n2c(C)cc(C(=O)CC#N)c2C)c1,?,·,?,·,10%,1%,-5%,-4.6%
CN(C)S(=O)(=O)c1cccc(NC(=O)CSc2nnnn2-c2ccccc2)c1,·,?,9%,2%,3%,·,·,·

# Screening results from PubChem BioAssay.
